Screening results: PubChem BioAssay, National Center for Advancing Translational Sciences (NCATS)
VACV Venus inh: vaccinia inhibition (Venus reporter) | Vaccinia virus Venus reporter expression, fluorescence | Potency, µM (doses to about 36.5 µM), for the others: at the highest dose activity change, negative = inhibition, hits mostly inhibitors | hit rate 0.46% among 330,000 | AID 720580; active means well fitted inhibition curve with a large enough effect; inconclusive means small, poorly fitted or top-dose-only effect; inactive means no such curve, though single readings can be large or run the other way; tested in A549 cells; note: nearly all actives have a fitted effect of over 30% in size; inactives centre near -10
Vaccinia mCherry: inhibitors of vaccinia virus infection (mCherry reporter signal); Potency, µM (top dose mostly 36.5 µM), for the others: at the highest dose activity change, negative = inhibition, hits mostly inhibitors; Vaccinia virus mCherry reporter infection, fluorescence; about a quarter of the inactives have no number; AID 720579; hit rate 0.63% among 310,000; active = well fitted inhibition curve with a large enough effect; inconclusive = small, poorly fitted or top-dose-only effect; inactive = no such curve, though single readings can be large or run the other way; tested in A549 cells; note: nearly all actives have a fitted effect of over 35% in size; inactives centre near -10
* marks the source's active call; other numbers are inactive results; i = inactive; ? = inconclusive; . = no result given; & = joins results of further samples; [ ] = another dose, or the depositor's remark. % is set by controls: 0 for no effect and ±100 for the full control effect; potency is the fitted concentration of half-maximal effect.

Compound | VACV Venus inh | Vaccinia mCherry
COc1cccc(CCNc2ncnc3c2nnn3C)c1 | -19% | -3%
CCOc1ccc(N2C(=O)CC(N(CCc3ccc(OC)cc3)C(=O)c3cccc(F)c3)C2=O)cc1 (stereo not drawn) | -10% | -15%
Cc1csc(NS(=O)(=O)c2cccc([N+](=O)[O-])c2)n1 | 1% | -14%
CC(C)(C)c1ccc(-c2nc(C#N)c(N3CCC(C(N)=O)CC3)o2)cc1 | -18% | -7%
CCOc1ccc(S(=O)(=O)Nc2cccc(C(=O)N(C)Cc3cccc(OC)c3OC)c2)cc1 | -11% | i
N=C1C(c2ccccc2)=C(O)CN1NC(=O)c1ccccc1 | -10% | i
Cc1ccc(C(=O)NNC(=O)c2ccc(C)cc2)cc1 | -12% | -1%
O=C(Cn1c(=O)cnc2ccccc21)NCC(=O)Nc1ccc(F)c(F)c1 | -9% | i
CCN(C(=O)COC(=O)C12CC3CC(CC(NC(C)=O)(C3)C1)C2)C1CCCCC1 | -7% | -16%
Cc1ccc(-c2noc(CN(C(=O)CCCN3C(=O)c4ccccc4C3=O)C(C)C)n2)cc1 | -23% | -6%
COC(=O)/C=C/c1ccc(-n2cncn2)cc1 | -10% | i
COc1ccccc1Cc1nc2ccccc2nc1SCC(=O)N1CCc2ccccc21 | -12% | -19%
CCCC(=O)NC(c1ccco1)c1cc(Cl)c2cccnc2c1O (stereo not drawn) | ? | ?
COc1ccc(C(=O)NC(C)CCc2ccccc2)c(O)c1 (stereo not drawn) | -15% | i
C[C@@H]1CN([C@@H](C)CO)S(=O)(=O)c2ccc(Br)cc2O[C@H]1CN(C)C(=O)c1ccccc1 | -8% | -14%
Nc1c(N(CCC2=CCCCC2)C(=O)Cc2ccccc2F)c(=O)[nH]c(=O)n1Cc1ccccc1 | -6% | -12%
COc1ccc(CN2C(=O)C(CC(=O)NC3CC3)CC(C(=O)N3CCOCC3)=C2C)cc1 (stereo not drawn) | 0% | 3%
CN(C)c1ccc(C=NN2C(=O)CSC2=S)c(Cl)c1 | 29% | i
CCN1C(=O)C2(C(C(=O)c3ccc(C)o3)=C(O)C(=O)N2CCCN2CCOCC2)c2ccccc21 (stereo not drawn) | -4% | -10%
C[C@@H](CO)NC(=O)c1ccc2c3n(nc2c1)-c1ccc(Cl)cc1CO3 | -10% | 0%

An excerpt of these results, with values under each structure.
Each structure is followed by: VACV Venus inh, Vaccinia mCherry
> Cc1ccc(-c2noc(CN(C(=O)CCCN3C(=O)c4ccccc4C3=O)C(C)C)n2)cc1
    -23%, -6%
> COC(=O)/C=C/c1ccc(-n2cncn2)cc1
    -10%, i

(more compounds)
Compound | VACV Venus inh | Vaccinia mCherry
Cc1ccc(N2CCN(S(=O)(=O)c3nnc(NC(=O)c4cccc(F)c4)s3)CC2)cc1 | ? | ?
Cc1ccc(NS(=O)(=O)c2cc(C(=O)Nc3cccc([N+](=O)[O-])c3)ccc2C)cc1 | ? | ?
Cn1c(=O)c2cc(S(=O)(=O)NC(C(=O)NC3CCCCC3)c3ccccc3)ccc2n(C)c1=O (stereo not drawn) | -13% | i
CC(C)Nc1cc(N2CCN(C3CCCCC3)CC2)c2noc3c2c1C(=O)c1ccccc1-3 | 16% | 2%
CC(C)CC(=O)N[C@H](C(=O)N[C@H](C(=O)N[C@@H](CC(C)C)[C@@H](O)CC(=O)N[C@@H](C)C(=O)N[C@@H](CC(C)C)[C@@H](O)CC(=O)O)C(C)C)C(C)C | -13% | -19%
O=C(Nc1c(-c2ccc3c(c2)OCO3)[nH][nH]c1=O)c1ccccc1 | 0% | 6%
CCCCn1c(N)c(NCCC(C)C)c(=O)[nH]c1=O | -12% | -22%
C/C(=N\Nc1nc(N)cc(Cl)n1)c1ccc(Cl)c(Cl)c1 | -19% | -20%
Cc1ccccc1NC(=O)C(=O)NC(C)CCc1ccccc1 (stereo not drawn) | -20% | -3%
O=C(c1cc(-c2ccc(F)cc2)on1)N1CCCC1 | -14% | -9%
C[C@H](CO)N1C[C@H](C)[C@@H](CN(C)S(=O)(=O)c2ccc(F)cc2)Oc2ccc(NC(=O)Cc3cn(C)c4ccccc34)cc2C1=O | ? | -16%
Cc1ccc(NC(=O)NC(=O)N(C(C)C)S(=O)(=O)c2ccc(C)cc2)cc1 | -14% | -15%
Cc1cccc(N=C2c3cc([N+](=O)[O-])ccc3-c3c2cc([N+](=O)[O-])cc3[N+](=O)[O-])c1 | -21% | -21%
O=C(COc1ccccc1)Nc1sc2c(c1C(=O)Nc1ccccc1Cl)CCCCC2 | 11% | 2%
O=C(CSc1n[nH]c(-c2ccccc2)n1)N1CCN(c2ccc(F)cc2)CC1 | -10% | -9%
CC(C)C[C@H](NC(=O)OC(C)(C)C)C(=O)N[C@@H](CO)[C@H](O)[C@@H]1C[C@@H]1C(=O)N1CCCC1 | 1% | -8%
COc1cc(CCC(=O)Nc2ccncc2Cl)cc(OC)c1OC | -17% | -4%
CC(C)c1nccn1S(=O)(=O)c1cc([N+](=O)[O-])ccc1Cl | -6% | -19%
CC(=O)C1C(c2ccc(OC(F)F)cc2)NC(=O)NC1(O)C(F)(F)F (stereo not drawn) | -1% | -12%
COc1ccc(C)cc1NC(=O)CSc1nc(=O)n(CCCN2CCOCC2)c2c1CCCC2 | -18% | ?

Remaining list, next part.
Compound | VACV Venus inh | Vaccinia mCherry
CC(C)(C)NC(=O)C(c1ccncc1)N(C(=O)Cn1nnc(-c2cccs2)n1)C1CCCCC1 (stereo not drawn) | 1% | -10%
COc1ccc(N2C[C@H](CSC)[C@@H](CC(=O)Nc3ccc(Br)cc3)C2=O)cc1 | -26% | ?
CC(C)(C)c1ccc(C(=O)Nc2ccc(-c3nc4ccccc4o3)c(O)c2)cc1 | 5% | 1%
CCCCc1nc2n[nH]c(N)c2c2c1CCC2 | -20% | .
CCC(CC)C(=O)c1c[nH]c(C(=O)NCc2ccccn2)c1 | -5% | -12%
COc1ccc(N(CC(=O)NCCc2cccc(C)c2)S(=O)(=O)c2c(C)noc2C)cc1 | -3% | -7%
O=C(NCc1ccccn1)c1cn(-c2ccccc2)nc1-c1ccc(Cl)cc1 | -16% | -24%
CCN(CC)c1ccc(/C=C/c2nccc3ccccc23)cc1 | 42%[activator] | 55%[activator]
CC1CCC(NC(=O)c2cc3c(Cl)nc4ccccc4c3s2)CC1 (stereo not drawn) | -3% | 0%
COC1C[C@@H](O[C@@H]2C(C)C(=O)OC(C)C(C)C(O)C(C)C(=O)[C@@]3(CO3)CC(C)C(OC3OC(C)CC(N(C)C)C3O)C2C)OC(C)[C@@H]1O (stereo partly drawn) | -1% | -11%
COc1ccc(Nc2ncnc3sccc23)c(OC)c1 | -9% | -17%
O=C1N/C(=C\c2ccc(O)cc2)C(O)=C1C=NCc1ccccc1 | ? | ?
O=C(CCc1ccccc1)NNC(=O)Nc1ccc(Br)cc1 | -4% | i
COc1cc2c(cc1NC(=O)COC(=O)[C@@H](NC(=O)c1ccccc1)C(C)C)oc1ccccc12 | -29% | -21%
CSc1ccc(C(=O)C2CCCN(C)C2)cc1 (stereo not drawn) | -14% | -8%
CC(Cc1cccs1)NC(=S)Nc1ccc(Cl)c(Cl)c1 (stereo not drawn) | -17% | -5%
COc1ccc(Nc2cc(C)nc(N3CCN(C(=O)c4ccc5c(c4)OCO5)CC3)n2)cc1 | -12% | -18%
O=C(COC(=O)c1cncc(Br)c1)NC1CCCCCC1 | -15% | -5%
O=C1COc2ccc(C(=O)C[n+]3cccc(O)c3)cc2N1 | 3% | -13%
Cc1nn(Cc2ccccc2)c(C)c1C=C1C(=O)NC(=O)NC1=O | -5% | -2%

(listing goes on)
Compound | VACV Venus inh | Vaccinia mCherry
O=C(NCC1CCCO1)c1cccc(NC(=O)c2cccs2)c1 (stereo not drawn) | -10% | -8%
CCC1CCCCN1C(=O)Cn1c(=O)n(CCCCCC(=O)NCc2ccc(F)cc2)c(=O)c2sccc21 (stereo not drawn) | -1% | -12%
O=C(Nc1nnc([C@H]2C[C@H](O)[C@@H](CO)O2)s1)Nc1cccc2c1CCCC2 | -4% | i
N#CCCn1cc(/C=N/O)c(-c2ccc(F)cc2)n1 | -10% | .
O=C1CCCN1CC#CCN1CCCC1 | -7%&-8%&-8%&10% | -11%&16%
COc1ccccc1CC(=O)N(Cc1ccccc1)c1cccc(C)c1 | -16% | i
CCC1(c2ccccc2)NC(=O)N(CC(=O)NC2CCCC2)C1=O (stereo not drawn) | -6% | -7%
Cc1ccc(N2CCN(C(=S)c3ccc(-c4cccc([N+](=O)[O-])c4)o3)CC2)cc1 | -6% | -8%
CC(C)N(C(=O)COC(=O)c1cccc(S(=O)(=O)N2CC3(C)CC2CC(C)(C)C3)c1)C(C)C (stereo not drawn) | -3% | -12%
O=C(Nc1ccccc1NC(=O)c1ccccc1F)c1ccccc1F | -16% | i
CCCCCc1c(-c2ccccc2F)ncn1CCc1ccccc1OC | -3% | -7%
CCOC(=O)N1CCN(C(=O)c2ccc(Cl)c(S(=O)(=O)N3CCOCC3)c2)CC1 | -10% | -8%
COc1ccc(S(=O)(=O)NCc2csc(-c3cccnc3)n2)cc1 | 12% | -15%
O=C(CSc1nc2ccc(Nc3nc(N4CCOCC4)nc(N4CCOCC4)n3)cc2s1)Nc1ccccc1Cl | -8% | -9%
CCc1nn(CC(=O)N(C)Cc2ccccc2)c(=O)c2cc3sccc3n12 | -4% | -7%
CCOC(=O)C(C)(C)N(Cc1ccc(C)cc1)S(=O)(=O)c1ccc(Cl)c([N+](=O)[O-])c1 | ? | ?
COc1ccc(NC(=O)COc2ccccc2)cc1NC(=O)c1ccco1 | -21% | -3%
Cc1ccc(C(=O)CCC(=O)OCC(=O)Nc2cc(S(=O)(=O)N(C)C)ccc2C)cc1 | -14% | -27%
CC(=O)Nc1c(I)c(C(=O)N[C@H]2C(O)O[C@H](CO)[C@@H](O)[C@@H]2O)c(I)c(N(C)C(C)=O)c1I (stereo partly drawn) | -14% | i
CC(=O)c1ccc(NC(=O)c2cccc(NC(=O)N3CCSc4ncccc43)c2)cc1 | -14% | -15%

Other entries
Compound | VACV Venus inh | Vaccinia mCherry
O=C(NCc1cccnc1)C(=O)NCC(c1ccco1)N1CCN(c2ccc(F)cc2)CC1 (stereo not drawn) | -23% | -10%
Cc1nn2c(c1-c1ccc(Cl)cc1)N=C(c1ccco1)CC2c1ccccc1 (stereo not drawn) | -20% | ?
CC(C)(C)C1CCc2c(sc3nc(-c4cc5cc(Cl)ccc5oc4=O)[nH]c(=O)c23)C1 (stereo not drawn) | -4% | -12%
O=C(Nc1ccccc1F)C1CCN(C(=O)Cc2ccccc2)CC1 | -1% | -2%
N#Cc1ccc(C23CC4(C2)[C@H](CN(CC2CCCCC2)[C@@H]4c2ccccc2)C3c2ccccc2)cc1 (stereo partly drawn) | -8% | -10%
NC(Cc1ccc(C(F)(F)F)cc1)c1csc(NC(=O)Nc2ccccc2Cl)n1 (stereo not drawn) | ? | ?
CCOCCCN(C(=O)c1snc(C(N)=O)c1N)C(C(=O)NC1CCCC1)c1ccc(OC)cc1 (stereo not drawn) | 3% | -6%
Cc1ccc(CNC(=O)c2cc(C3CC3)nc3c2c(C)nn3-c2cccc(Cl)c2C)cc1 | -23% | -26%
COc1cc(C2NC(=O)N(C)C3=C2C(=O)CCC3)cc(OC)c1OC (stereo not drawn) | -6% | i
CCc1nn(CCCC(=O)N2CCN(c3ccc(OC)cc3)CC2)c(=O)c2cc3occc3n12 | -13% | -18%
COc1ccc(-n2nc(C(=O)NCc3cc(OC)ccc3OC)c3c4ccccc4n(C)c3c2=O)cc1 | -5% | -17%
COc1cc(OC)cc(C(=O)N[C@H](C(=O)Nc2nc3ccccc3[nH]2)C(C)C)c1 | ? | ?
Cc1ccccc1C1(CC(=O)N2CCCC(C)C2)CC(=O)N(Cc2cccnc2)C1=O (stereo not drawn) | 3% | -11%
Cc1ncc2c(c1CNS(=O)(=O)N(C)C)CCN(C(=O)/C=C/c1ccccc1)C2 | 14% | -1%
O=C(CN(C(=O)c1csnn1)c1cccc(C(F)(F)F)c1)NCc1ccc(F)cc1 | -7% | -11%
Cc1oc2ccc(O)c(CN3CCCC3)c2c1C(=O)Nc1cccc(Cl)c1C | -2% | -11%
COc1cc(/C=C(/C#N)c2ccc(C)cc2)ccc1Oc1ccc([N+](=O)[O-])cn1 | -11% | -4%
Cc1ccc(NC(=O)COc2ccc3oc4c(c3c2)CCCC4)cc1C | -6% | -9%
Cc1ccc(-n2cnc3cc(C(=O)NCc4ccc(F)cc4)ccc32)c(C)c1 | -10% | -6%
COc1ccc(OC)c(Nc2sc(C(=O)c3ccccc3)c(N)c2S(=O)(=O)c2ccccc2)c1 | -22% | -20%
Cc1ccc(OC(C)C(=O)N2CC(=O)Nc3ccccc32)cc1 (stereo not drawn) | -5% | -13%
O=S1(=O)NC(=NCc2ccco2)c2ccccc21 | -4% | -8%
CCOC(=O)N1CCN(C(=O)c2cccc(N3C(=O)NC4CC3(C)Oc3ccc(Cl)cc34)c2)CC1 (stereo not drawn) | -24% | -5%

Complete entries, quoted from the list. Screens in order: VACV Venus inh | Vaccinia mCherry
`COc1ccc(-n2nc(C(=O)NCc3cc(OC)ccc3OC)c3c4ccccc4n(C)c3c2=O)cc1` is listed as -5% | -17%
`O=C(NCc1cccnc1)C(=O)NCC(c1ccco1)N1CCN(c2ccc(F)cc2)CC1` (stereo not drawn) is listed as -23% | -10%

Taken from above:
Under Vaccinia mCherry, `COc1ccc(OC)c(Nc2sc(C(=O)c3ccccc3)c(N)c2S(=O)(=O)c2ccccc2)c1` reads -20%
Under VACV Venus inh, `CCOCCCN(C(=O)c1snc(C(N)=O)c1N)C(C(=O)NC1CCCC1)c1ccc(OC)cc1` (stereo not drawn) reads 3%
Under Vaccinia mCherry, `Cc1ccc(NC(=O)COc2ccc3oc4c(c3c2)CCCC4)cc1C` reads -9%
